RGS16-Gao: RGS16-Galphao interaction regulator (human). AID 1441. binding response (% of control), % at 10 µM. 220,000 compounds, 0.38% hits. O15492+P09471. bead-based flow cytometry RGS16-Galphao binding, fluorescence; actives lie on both sides;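 active = below 25% or above 175%, edge rows of some plates excepted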;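 note: Galphao activated by GDP with aluminum fluoride before binding; 100% = wells without compound and 0% = beads without RGS; some results beyond the cut were filed as inactive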
Target sequence (O15492 whole entry, looked up): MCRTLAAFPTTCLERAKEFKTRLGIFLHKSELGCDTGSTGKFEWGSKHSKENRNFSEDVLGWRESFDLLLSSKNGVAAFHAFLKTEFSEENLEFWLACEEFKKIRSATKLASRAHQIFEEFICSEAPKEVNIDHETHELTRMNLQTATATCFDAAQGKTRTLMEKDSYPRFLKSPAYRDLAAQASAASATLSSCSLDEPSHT
Target sequence (P09471 whole entry, looked up): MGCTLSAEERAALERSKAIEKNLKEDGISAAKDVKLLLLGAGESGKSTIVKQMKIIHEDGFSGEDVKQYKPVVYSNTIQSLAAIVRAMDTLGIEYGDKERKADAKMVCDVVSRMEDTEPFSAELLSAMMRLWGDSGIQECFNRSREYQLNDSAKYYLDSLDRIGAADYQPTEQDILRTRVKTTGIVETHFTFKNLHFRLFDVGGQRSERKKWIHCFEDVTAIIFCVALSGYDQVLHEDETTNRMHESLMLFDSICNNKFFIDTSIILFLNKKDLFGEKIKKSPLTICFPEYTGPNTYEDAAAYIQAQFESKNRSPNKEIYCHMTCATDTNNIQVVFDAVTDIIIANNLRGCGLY
PKD1 kinase inh: inhibitors of human PKD1 kinase | PKD1 kinase fluorescence polarization assay | inhibition, %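 (about 10 µM by stock and volumes)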 | 200,000 compounds, 0.056% hits;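 active = inhibition of 50% or more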;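 note: controls were vehicle for no effect and a reference inhibitor for full effect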
HSV augment: increases HSV replication in cells; AID 1956; 220,000 compounds, 0.005% hits; maximum fold increase; HSV replication augmentation in cells, fold increase;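 active = peak rise of 1.5-fold or more in the series; tested in PC3 cells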;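 note: first round at 10 µM; read as green reporter fluorescence; hits show the peak of a series up to 25 µM; 1 = signal of infected wells without compound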
GALR2 agonist: agonists of human galanin receptor 2 (GALR2); O43603; GALR2-expressing cells, agonist activation read-out; activation, %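 (tested at 5 µM)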; 140,000 compounds, 0.48% hits;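 active = above mean plus 3 SD of all compounds, about 5% in these data, not always enough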;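 note: 0% = vehicle buffer wells and 100% = reference agonist at full effect; tested in CHO reporter cells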
Target sequence (O43603 whole entry, looked up): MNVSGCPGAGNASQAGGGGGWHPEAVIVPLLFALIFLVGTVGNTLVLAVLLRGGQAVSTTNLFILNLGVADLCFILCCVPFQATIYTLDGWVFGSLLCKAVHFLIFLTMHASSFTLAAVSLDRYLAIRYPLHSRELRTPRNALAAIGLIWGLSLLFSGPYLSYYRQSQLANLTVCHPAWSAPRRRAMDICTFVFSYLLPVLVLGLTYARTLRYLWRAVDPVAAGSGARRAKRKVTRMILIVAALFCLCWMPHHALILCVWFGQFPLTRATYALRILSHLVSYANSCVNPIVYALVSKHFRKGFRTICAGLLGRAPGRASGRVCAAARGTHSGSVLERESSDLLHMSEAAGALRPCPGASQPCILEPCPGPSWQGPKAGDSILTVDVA
Insulin prom inh: TRM-6 insulin promoter activity inhibition. TRM-6 cells (human fetal islet line), insulin promoter-eGFP reporter, imaging; reporter expression induced with tamoxifen. inhibition, % at 2 µM. 130,000 compounds, 0.9% hits. AID 1273;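 active = inhibition above the mean plus 3 SD, with well images judged a real hit on visual review, cut at about 60% in these data, passing the limit was not always enough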
Insulin prom inh cell count: second read-out of Insulin prom inh, no call of its own (marks repeat the call); normalized cell count, %; measured here: cell count, toxicity; reference of the scale not given here;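 cells exposed to compound for 48 h; stained nuclei by imaging scaled within each plate; lower means fewer cells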
HSV augment primary fold: recorded beside HSV augment, whose call it bears; fold increase; compound at 10 µM; measured here: primary screen fold increase 10 uM; tested in PC3 cells;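 GFP signal in the first replicate; 1 = infected wells without compound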
Starred values were filed as active, the others as inactive; i = inactive; nt = not tested or not shown.

SMILES | RGS16-Gao | PKD1 kinase inh | HSV augment | HSV augment primary fold | GALR2 agonist | Insulin prom inh | Insulin prom inh cell count
O=C(O)C1CC(=O)N(CCOc2ccccc2)C1 (stereo unspecified) | 94.7 | -5.1 | i | 0.95 | -0.4 | 21.1 | 114.5
COc1ccc(NC(=O)CCN2C(=O)c3ccccc3S2(=O)=O)c(OC)c1 | 113.6 | -1.2 | i | 0.65 | nt | 20.0 | 103.3
CC1(C)C(=O)OC(c2ccccc2)C2(CCCC2)C1=O (stereo unspecified) | 103.8 | -2.5 | i | 1 | -0.5 | -65.5 | 190.7
CCOC(=O)C1=NN(c2ccccc2C)C2=NC(C)=C(C(=O)OC)C(c3cccc(OC)c3)N12 (stereo unspecified) | 98.1 | 1.0 | i | 1.02 | -0.9 | nt | nt
COc1ccc(Cc2noc(CN(C)CC(O)c3ccccc3)n2)cc1OC (stereo unspecified) | 98.7 | -5.1 | i | 0.95 | nt | nt | nt
CCCOC(=O)c1ccc(Oc2coc3c(CN(CC)CC)c(O)ccc3c2=O)cc1 | 103.7 | 5.4 | i | 0.95 | -0.1 | -42.9 | 97.8
COC(=O)CN(c1ccc(C(C)C)cc1)S(=O)(=O)c1c(C)[nH]c(=O)[nH]c1=O | 89.3 | -9.2 | i | 1.06 | -3.2 | nt | nt
C=CCn1c(=NC(=O)CC)n(C)c2ccccc21 | 100.1 | 0.8 | nt | nt | -0.9 | -66.7 | 113.9
CC1(C)C2CCC1(CS(=O)(=O)NCc1ccc(C(=O)O)cc1)C(=O)C2 (stereo unspecified) | 100.7 | -13.8 | i | 0.9 | 0.5 | 28.2 | 162.2
CCO[C@H]1OC(C(=O)Nc2ccccc2)=C[C@@H](C)[C@@H]1CCCO | 95.9 | -6.8 | i | 0.91 | nt | nt | nt
CCCn1c(SCC(=O)Nc2nnc(C(C)C)s2)nc2c1c(=O)n(C)c(=O)n2C | 100.3 | 8.7 | i | 0.86 | 0.0 | 61.5 | 129.4
COc1ccc2[nH]c(=O)c(CN(Cc3ccccc3)C(=S)NCC3CCCO3)cc2c1 (stereo unspecified) | 105.5 | 6.0 | i | 0.91 | nt | -250.0 | 95.7
CCN(CC)CCCN1C(=O)C(O)=C(C(=O)c2ccc(C)o2)C1c1ccco1 (stereo unspecified) | nt | -1.8 | nt | nt | -3.5 | 23.3 | 137.3
CCNC(=O)NC1(C(=O)Nc2ccc3c(c2)OCCO3)CCCCC1 | 94.2 | -5.2 | i | 1.01 | -1.6 | -40.0 | 213.4
O=C1CCC(=O)N1c1ccc(-c2nc3ccccc3s2)cc1 | 101.5 | -4.6 | i | 1.02 | nt | -15.8 | 83.7
COc1ccc(NC(=S)N2CCOCC2)c(OC)c1 | 96.4 | -19.2 | i | 0.94 | -0.5 | 37.8 | 103.3
CSc1ncccc1C(=O)OCc1ccc(COC(=O)c2cccnc2SC)cc1 | 104.0 | -3.0 | i | 1.14 | -1.1 | nt | nt
O=C(NCc1cccs1)c1cc(-c2ccccc2)on1 | 100.2 | -6.8 | i | 0.75 | -1.1 | -59.3 | 111.9
CNc1ccc(Br)cc(C(=O)/C=C/c2ccc3c(c2)OCO3)c1=O | 93.0 | 4.0 | i | 0.98 | -1.2 | -25.0 | 27.4
CCOC(=O)c1ccccc1-n1c(C)cc(C2N=C(N)Nc3nc4ccccc4n32)c1C (stereo unspecified) | 101.5 | 14.3 | i | 0.95 | -1.2 | 0.0 | 90.2

Reprinted at random: 5 records from the list.
SMILES | RGS16-Gao | PKD1 kinase inh | HSV augment | HSV augment primary fold | GALR2 agonist | Insulin prom inh | Insulin prom inh cell count
CCOC(=O)c1ccccc1-n1c(C)cc(C2N=C(N)Nc3nc4ccccc4n32)c1C (stereo unspecified) | 101.5 | 14.3 | i | 0.95 | -1.2 | 0.0 | 90.2
O=C(NCc1cccs1)c1cc(-c2ccccc2)on1 | 100.2 | -6.8 | i | 0.75 | -1.1 | -59.3 | 111.9
CCN(CC)CCCN1C(=O)C(O)=C(C(=O)c2ccc(C)o2)C1c1ccco1 (stereo unspecified) | nt | -1.8 | nt | nt | -3.5 | 23.3 | 137.3
CCCn1c(SCC(=O)Nc2nnc(C(C)C)s2)nc2c1c(=O)n(C)c(=O)n2C | 100.3 | 8.7 | i | 0.86 | 0.0 | 61.5 | 129.4
CNc1ccc(Br)cc(C(=O)/C=C/c2ccc3c(c2)OCO3)c1=O | 93.0 | 4.0 | i | 0.98 | -1.2 | -25.0 | 27.4

Further records.
SMILES | RGS16-Gao | PKD1 kinase inh | HSV augment | HSV augment primary fold | GALR2 agonist | Insulin prom inh | Insulin prom inh cell count
O=Cc1cccn1-c1nccc(-c2ccco2)n1 | 98.5 | -6.3 | i | 1 | nt | nt | nt
COC(=O)c1ccccc1NC1OC(=O)c2ccccc21 (stereo unspecified) | 101.8 | -1.9 | i | 1.08 | -0.4 | -14.3 | 77.7
Cc1ccc(NC(=O)c2cccs2)cc1 | 103.5 | -1.5 | i | 0.93 | -2.4 | 46.7 | 119.1
S=C(NCc1ccccn1)Nc1ccc(Cl)cc1Cl | 99.8 | -3.1 | i | 0.97 | -1.6 | -16.7 | 88.5
CCn1cc(C2C(C(=O)Nc3ccc(Br)cn3)=C(C)NC3=C2C(=O)CCC3)c(C)n1 (stereo unspecified) | 102.5 | 4.9 | i | 0.98 | -0.3 | 35.7 | 139.7
CCc1ccc(CN2CCCC(CNS(=O)(=O)c3ccc(OC)cc3)C2)cc1 (stereo unspecified) | 155.7 | -2.0 | i | 0.87 | nt | nt | nt
Cc1c(/C=N/Nc2nc3ccccc3[nH]2)c2ccccc2n1C | 91.4 | nt | i | 0.56 | nt | nt | nt
COc1ccc(CNc2ncnc3c2[nH]c2cc(OC)c(OC)cc23)cc1 | 99.3 | nt | i | 0.97 | nt | nt | nt
N#Cc1ccc(C(=O)N2CCN(S(=O)(=O)c3ccc(Br)s3)CC2)cc1 | 99.3 | -6.7 | i | 1.02 | nt | -35.7 | 107.6
CCN1CCN(c2nc(-c3ccccc3)nc3ccccc23)CC1 | 101.5 | -7.7 | i | 0.8 | -0.8 | 24.2 | 137.9
COc1ccc(CNc2nc(S(=O)(=O)c3ccccc3)c(Cl)s2)cc1OC | 136.9 | -0.1 | i | 0.95 | 0.5 | -16.1 | 57.9
COc1ccc(CNc2nc3nc4c(c(=O)n3[nH]2)CCC4)cc1 | 101.2 | -4.7 | i | 0.97 | -1.0 | -8.6 | 201.3
Fc1ccc(C2CC(c3ccco3)n3ncnc3N2)cc1 (stereo unspecified) | 101.2 | -13.6 | i | 1.14 | -1.8 | nt | nt
CCN(CC)CCCN1C(=O)C(=O)/C(=C(/O)c2cnn(-c3ccccc3)c2C)C1c1ccncc1 (stereo unspecified) | nt | -6.2 | nt | nt | -2.9 | 35.0 | 122.6
COC(=O)C(=Cc1ccccc1[N+](=O)[O-])C(=O)OC | 101.5 | nt | i | 0.83 | nt | nt | nt
COc1ccc(CNC(=O)C2CCN(C(=O)[C@@H](CC(C)C)NC(=O)OC(C)(C)C)CC2)cc1 | 100.8 | -15.7 | i | 0.97 | -0.3 | 30.8 | 91.3
CCCCn1c(=O)c(CC(C)=O)nc2ccccc21 | 100.5 | -6.4 | i | 1.04 | -1.3 | 15.4 | 110.4
CN(C)c1ccc(C=Nc2ccc(N(C)C)cc2)cc1 | 84.1 | 0.8 | i | 0.88 | -1.8 | -376.9 | 83.9
CCSc1nnc(NC(=O)C2CCCCC2)s1 | 100.6 | 0.6 | i | 0.85 | -1.6 | -261.1 | 37.7
CC(=O)Cc1ccccc1OC(=O)c1ccco1 | 92.1 | -9.7 | i | 0.96 | -2.8 | nt | nt
COc1ccccc1NS(=O)(=O)c1cc(NC(=O)c2cccs2)ccc1N1CCCC1 | 63.7 | -15.0 | i | 0.78 | -0.4 | 20.6 | 129.8
COc1ccc(NC(=O)Cn2c(=O)sc3ccccc32)c(OC)c1 | 105.7 | -8.6 | i | 1.03 | -2.2 | nt | nt
Cc1cc(Nc2cc(Cl)cc(Cl)c2)nc(N)n1 | 103.5 | nt | i | 0.95 | nt | nt | nt
C=CCOc1c(OC)cc(/C=N/Nc2cccc(C(=O)O)c2)c(Br)c1Br | 99.3 | -6.2 | i | 0.63 | 0.0 | -28.1 | 66.7
COc1ccccc1/C=C/C=N/n1c(-c2cc(C)[nH]n2)n[nH]c1=S | 11.1 | 13.9 | i | 1.16 | 0.1 | nt | nt
CC(=O)N1CCN(c2ccccc2NC(=O)COc2ccc(Br)cc2)CC1 | 84.5 | -15.0 | i | 0.79 | -1.9 | -57.1 | 104.2
CCNC(=O)NC(=O)C(C)OC(=O)c1ccc(SC)cc1OC (stereo unspecified) | 103.0 | -6.3 | i | 1.07 | nt | 18.2 | 111.5
CCC(C)[C@H](NC(=O)NCCC1=CCCCC1)C(=O)O (stereo partly specified) | 108.2 | nt | i | 0.95 | nt | nt | nt
CCOC(=O)c1[nH]cnc1C(=O)Nc1ccccc1 | 103.4 | 6.0 | i | 1.02 | nt | -18.5 | 87.2
Cc1cc(N)n2nc(C)c(-c3ccc(Cl)cc3)c2n1 | 100.2 | -1.1 | i | 0.75 | nt | nt | nt
CC(=O)c1cnc(N(C)C)s1 | 88.6 | -6.0 | i | 1.03 | -3.7 | 31.2 | 166.7
O=C(NCCNCc1ccccn1)c1ccco1 | 97.9 | -0.3 | i | 0.91 | nt | 36.8 | 113.7
O=C(Nc1cccc(S(=O)(=O)Nc2ccc(Cl)cc2)c1)c1ccc[n+]([O-])c1 | 105.7 | nt | i | 1.15 | nt | nt | nt
CC(C)(C)NC(=O)CSc1nncn1-c1ccccc1 | 117.2 | -9.7 | i | 1.21 | -0.9 | nt | nt
O=C(CSc1n[nH]c(-c2ccncc2)n1)c1cccc([N+](=O)[O-])c1 | 109.5 | -5.7 | i | 1.09 | nt | nt | nt
CCOC(=O)c1sc(=S)n(C)c1NC(=O)c1ccc(OC)cc1 | 95.0 | nt | i | 0.95 | nt | nt | nt
Cc1cnc(NC(=O)CSc2ccc(Cl)cc2)s1 | 98.8 | -4.9 | i | 1.01 | -2.0 | -2.9 | 157.3
C#CCNc1ccc(C(=O)OCC)cc1 | 96.5 | nt | i | 0.96 | nt | nt | nt
Cc1ccccc1Nc1nc(N)nc(CN(C)Cc2ccccc2Cl)n1 | 96.9 | -3.9 | i | 0.87 | 0.6 | 0.0 | 95.0
CC1C/C(=C/c2cccs2)C(=O)/C(=C/c2cccs2)C1 (stereo unspecified) | 100.8 | -2.2 | i | 1.06 | 0.7 | -17.2 | 154.6
COc1ccc(C2C3CCCCC3(O)CCN2C(=O)c2cccs2)cc1 (stereo unspecified) | 103.7 | -6.7 | nt | nt | 1.1 | nt | nt
Cc1cc(OCC(=O)Nc2ccncc2)cc(C)c1Br | 112.0 | -6.1 | i | 0.883 | -1.8 | 18.8 | 127.8
Cc1nonc1OCCNCCNc1ccc([N+](=O)[O-])cc1Cl | 97.6 | 13.4 | i | 0.92 | nt | -79.5 | 19.2
CCc1cccc(CC)c1N1C(=O)c2cc(N3CCOCC3)c([N+](=O)[O-])cc2C1=O | 103.6 | -13.0 | i | 1.03 | -0.9 | -23.1 | 70.6
CCOc1ccc(C(=O)NCC(=O)OCC(=O)Nc2ccccc2OC)cc1 | 106.3 | -1.2 | i | 1.07 | 0.2 | 16.1 | 105.3
CCOC(=O)c1c(COc2ccccc2)oc2ccc(O)cc12 | 108.4 | 1.4 | i | 0.973 | -1.0 | -6.1 | 113.4
COCC(=O)c1[nH]c2ccccc2c1C | 95.0 | 8.8 | i | 0.93 | -3.5 | -31.0 | 122.6
COC(=O)c1ccc(Cl)c(NC(=O)CN(c2ccccc2)S(=O)(=O)c2ccc(OC)cc2)c1 | 102.5 | -3.6 | i | 1.07 | 0.3 | nt | nt
CCCCC(CCC(=O)Nc1cccc([N+](=O)[O-])c1)C(=O)O (stereo unspecified) | 108.0 | nt | i | 0.93 | nt | nt | nt
COc1ccc(Cc2nc(C(=O)Nc3ccc(F)cc3)cs2)cc1 | 103.7 | 5.0 | i | 0.813 | -2.5 | 57.1 | 168.3
The list continues:
SMILES | RGS16-Gao | PKD1 kinase inh | HSV augment | HSV augment primary fold | GALR2 agonist | Insulin prom inh | Insulin prom inh cell count
CCOC(=O)c1cc2c(ccn2C)n1Cc1ccc(Cl)cc1 | 99.7 | 2.8 | i | 1.08 | nt | 36.8 | 65.0
CC(=O)CC(C)(C)S(=O)(=O)c1ccc(NC(C)=O)cc1 | 107.5 | 1.0 | i | 0.99 | -2.3 | -247.6 | 83.7
O=C(NC(=O)c1ccccc1N1CCCCC1)Nc1ccc(Br)cc1 | 98.2 | nt | i | 0.78 | nt | nt | nt
N#C/C(=C(/O)COc1ccc(Br)cc1)c1nnc2n1CCCCC2 | 96.1 | -6.4 | i | 0.97 | nt | 0.0 | 88.9
O=C(/C=C/c1ccc[nH]1)c1ccc(F)cc1 | 124.9 | 2.8 | i | 1.15 | nt | 35.0 | 59.8
COc1ccc(NC(=S)NCCCN2CCCC2=O)c(OC)c1 | 101.5 | -2.4 | i | 0.94 | nt | nt | nt
